Calb biofilm kill: mixtures killing C. albicans biofilm. C. albicans biofilm persisters + clotrimazole, fluorescence viability; primary screen in compound mixtures of four per well. inhibition, % at 7.6 µM. AID 1242. 120,000 compounds, 0.02% hits;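 active = inhibition above 30.3% in the primary screen of four-compound pools, then above 30% when the compound was retested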;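 note: compounds exposed to preformed 24 h biofilms for 48 h; the number belongs to the whole pool; some results filed as inactive read as strong as hits; inactives centre near 12; 0% = biofilm with clotrimazole alone and 100% = kill control; retested singly at about 60 µM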
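Assay system: C. albicans biofilms / Medium: RPMI/MOPS medium, pH 7.0 / Schedule: biofilm formation 24 h, compound exposure 48 h, 37 °C / Measured by: Alamar Blue fluorescence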
An asterisk follows results filed as active. The list is partial. The share of hits here may be higher or lower than overall.

Molecule | Calb biofilm kill
C/C(=N\NC(=O)COc1ccc(C(C)(C)C)cc1)c1ccc(OC(F)F)cc1 | 8
Cc1cc([N+](=O)[O-])nn1CCCC(=O)O | 10
Cc1ccc(NC(=O)CSc2ccccc2NC(=O)c2ccccc2)cc1Cl | 16
Cc1cc(/C=C(\C#N)C(=O)O)c(C)n1CC(C)C | 12
CCOC(=O)C1(CC2CCCCO2)CCN(C(=O)NCc2ccccc2)CC1 (centres undefined) | 10
Cc1csc2ncnc(NCCc3ccccn3)c12 | 10
COC(=O)c1ccc(N2C(=O)Nc3ccccc3N2O)cc1 | -2
COc1ccc(-n2c(SCc3ccc([N+](=O)[O-])cc3)nnc2-c2ccccc2)cc1 | -11

Remaining list, next part:
Molecule | Calb biofilm kill
COc1ccc(OCC(O)CNC(=O)Nc2cc(F)ccc2C)cc1 (centres undefined) | 2
O=C(c1cccc([N+](=O)[O-])c1)N1CCCC(C(=O)N2CCCCC2)C1 (centres undefined) | 21
Cc1[nH][nH]c(=O)c1C(c1c(C)[nH][nH]c1=O)c1cn(Cc2ccccc2Cl)c2ccccc12 | 19
Nc1c(C(=O)NCC2CCCO2)sc2nc3c(c(-c4ccco4)c12)CC/C3=C\c1ccco1 (centres undefined) | 10
Cn1c2ccccc2c(=O)c2c(=O)n(-c3ccccc3)c(C3CCCCC3)nc21 | -5
CN1CCC(=C(c2ccc(Cl)cc2)c2ccccn2)CC1 | 16
CC(C)Cn1c(SCC(=O)N2CCc3ccccc3C2)nc2cc(Cl)ccc2c1=O | 10
Cc1ccc(SC[C@H](c2ccccc2)N2CCN(CCc3ccccc3)CCC2=O)cc1 | 14

Next part:
Molecule | Calb biofilm kill
C/C(=N\NC(=O)c1ccccc1)c1cccc(Br)c1 | 12
Cc1ccc(S(=O)(=O)N(C)C)cc1NC(=O)CN1CCN(Cc2ccccc2)CC1 | -3
O=C(NCCc1ccccn1)/C(=C/c1ccco1)NC(=O)c1ccccc1 | 5
O=C(Nc1ccccc1)N1CCCN(Cc2c(F)cccc2Cl)CC1 | 8
CCOC(=O)C1(Cc2cccc(OC)c2)CCN(Cc2cccc3c2OCO3)CC1 | 8
COc1ccc(N2C(=O)[C@@H]3C(c4cccnc4)=NO[C@@H]3C2=O)cc1 | 8
CCn1c(SCC(=O)OC)nc2sc3c(c2c1=O)CC(C)(C)OC3 | 13
Cc1cccc(C)c1NC(=O)CN(C)C(C)C(=O)Nc1ccccc1-c1ccccc1 (centres undefined) | -3

Other structures:
Molecule | Calb biofilm kill
Cn1cc(C(=O)N/N=C/c2ccc3c(c2)OCO3)c2ccccc21 | 14
Oc1[nH]c2ccccc2c1N=NC(=S)N1CCOCC1 | 17
C=CCn1c(SCC(=O)c2ccc(OC)cc2)nnc1-c1ccc2c(c1)OCO2 | 14
O=C(Nc1cccc(C(=O)O)c1)/C(=C\c1ccc2c(c1)OCO2)NC(=O)c1ccco1 | 21
O=C(Nc1ccc(Cl)cc1)Nc1ccc(Oc2cccnc2)nc1 | 14
N=c1n(Cc2ccccc2)c2ccccc2n1Cc1ccccc1 | 9
COc1ccc(-n2c(Cn3nc(C(F)(F)F)cc3C)n[nH]c2=S)cc1 | -2
CC(C)=C1C2CCC1C1C(=O)N(c3nccs3)C(=O)C21 (centres undefined) | 15

Going on with the list:
Molecule | Calb biofilm kill
Nc1ccc(S(=O)C(F)(F)F)cc1 (centres undefined) | 16
COC(=O)c1ccc(CNC(=O)COC(=O)c2cc(Cl)nc(Cl)c2)cc1 | 11
CC1CCCCC1NC(=O)CN(C)S(=O)(=O)c1cccc2cccnc12 (centres undefined) | 29
COc1ccc(-c2ccnc(-c3ccncc3)n2)cc1 | 33
CCOC(=O)C(=O)NNc1ccc(F)cc1 | 1
COc1cc(CNc2ccc(S(N)(=O)=O)cc2)ccc1OCC(=O)NC1CCCCC1 | 11
Cc1occc1C(=O)NC1CCCCCCC1 | 6
COc1ccccc1N1CCN(C(=S)Nc2cccc(C)c2)CC1 | -9

More records follow:
Molecule | Calb biofilm kill
CC(=O)C1C(=O)CC(C)(O)C(C(C)=O)C1c1ccccc1 (centres undefined) | 18
CC(=O)N1c2ccc([N+](=O)[O-])cc2NC(=O)CC1C (centres undefined) | 11
CCCNC(=O)CN(C)S(=O)(=O)c1ccc(F)cc1 | 15
COc1ccc(N2CCN(c3ccc([N+](=O)[O-])nc3)CC2)cc1 | 1
Cc1cc(-c2nnc(SCC(=O)Nc3nc(-c4ccc(Cl)cc4)cs3)o2)no1 | 19
O=C(Nc1cccc([N+](=O)[O-])c1)c1ccccc1 | 3
COc1ccc(C=O)cc1Cn1c(=O)n(CCC(=O)NCc2ccco2)c(=O)c2sccc21 | -4
Cc1cc(C)n(C(=O)COc2ccccc2C)n1 | 14

(listing goes on)
Molecule | Calb biofilm kill
CC(C)N(CCc1ccncc1)C(=S)Nc1cccc(Cl)c1 | 1
C=CCCN(C1CCCC1)S(=O)(=O)c1ccccc1Br | 16
O=c1ccccn1CCOc1ccccc1Cl | 12
CCc1ccc(NCc2nc(-c3ccccc3)no2)cc1 | 13
CCCn1nnc(NC(=O)c2cccnc2Cl)n1 | 21
C/C(=N/NC(=O)c1cc(-c2ccc(Cl)s2)[nH]n1)c1ccco1 | 10
CCNc1nc(NC(N)=S)nc(NC(C)(C)C)n1 | 0
CN1CCN(C(=O)C2=C[C@H](c3coc4ccccc4c3=O)C[C@H](OCc3ccc(CO)cc3)O2)CC1 | 17

Next section; the last 4 above are carried over.
Molecule | Calb biofilm kill
CCCn1nnc(NC(=O)c2cccnc2Cl)n1 | 21
C/C(=N/NC(=O)c1cc(-c2ccc(Cl)s2)[nH]n1)c1ccco1 | 10
CCNc1nc(NC(N)=S)nc(NC(C)(C)C)n1 | 0
CN1CCN(C(=O)C2=C[C@H](c3coc4ccccc4c3=O)C[C@H](OCc3ccc(CO)cc3)O2)CC1 | 17
Cc1ccc(NC(=O)COC(=O)c2cccc(N3C(=O)c4ccccc4C3=O)c2)cc1 | 11
COc1ccc(/C=N\N=C2/SC(CC(=O)O)C(=O)N2c2ccc(O)cc2)cc1OC (centres undefined) | 9
CCc1ccc2c(c1)C(c1ccc([N+](=O)[O-])cc1)=NNC(c1ccc(Br)cc1)=N2 | 11
CCCN1Cc2cccc(C(=O)NC(CC(=O)OCC)c3ccc(OC(C)C)cc3)c2C1=O (centres undefined) | 16
O=C(CNC(=O)c1ccc2c(c1)OCCO2)N/N=C/c1ccc(Cl)cc1 | 4
CC(C)OCCCNc1nc2c(-c3ccccc3)nnn2c2ccccc12 | 2
CC(=O)C1=C(C)NC(=S)NC1c1cc([N+](=O)[O-])ccc1O (centres undefined) | 15
O=C(Cc1c[nH]c2ccccc12)N1CCN(c2ccccc2)CC1 | 15

More records.
Molecule | Calb biofilm kill
OCC1(CCCc2ccccc2)CCN(C2CCSCC2)CC1 | 18
CCC(=O)Nc1ccc(C(=O)NCc2ccccn2)cc1 | 4
Cc1ccc(NC(=O)COc2ccccc2C(=O)Nc2ccccc2)cc1Cl | 13
CC1CCCCN1S(=O)(=O)c1ccc(S(=O)(=O)NCCc2ccncc2)cc1 (centres undefined) | 11
Cc1cc2ccccc2nc1SCC(=O)NC1CCCCC1 | 14
CC(C)N1CCN(Cc2ccc(C#CCCO)cc2)CC1CCO (centres undefined) | 2
COc1cc2c(cc1OC)CN(C(=O)c1ccc(S(=O)(=O)N3CCCCC3)cc1)CC2 | 5
COc1ccc(CN(C)C(C)C(=O)Nc2ccc(S(=O)(=O)N3CCOCC3)cc2)c(OC)c1 (centres undefined) | 14

(cont.)
Molecule | Calb biofilm kill
CN1CCC(=NNC(=O)c2cc(-c3ccc(Cl)cc3)n[nH]2)CC1 | 14
COC(=O)C1CC(O)CN1C(=O)Nc1cccc(C(F)(F)F)c1 (centres undefined) | 5
CCOC(=O)c1c(NC(=O)CSc2nc3ccccc3o2)sc(C(C)=O)c1C | 5
CNc1ccc(/C=C/C(=O)c2cccc3ccccc23)cc1[N+](=O)[O-] | 18
Cc1ccc(NC(=O)Cc2cc(C(=O)O)c3ccccc3n2)c(C)c1 | 8
CC(c1ccccn1)N(Cc1ccco1)C(=S)Nc1cccc(F)c1 (centres undefined) | 12
O=C(Nc1ccc(O)cc1)/C(=C\c1cccs1)NC(=O)c1ccccc1 | 14
Cc1cccc(C(=O)NCCNC(=O)c2cccc(C)c2)c1 | 14

(next part)
Molecule | Calb biofilm kill
COc1ccc(N2CCN(C(=O)CNC(=O)c3cn(-c4ccccc4OC)c(=O)c4ccccc34)CC2)cc1 | 14
Cc1cccc(NC(=O)CN2C(=O)N/C(=C\c3ccc(-c4cccc(C(=O)O)c4)o3)C2=O)c1 | 33
COc1ccc2oc(C(=O)OCC(=O)NCCN3C(=O)CSC3=O)c(C)c2c1 | 14
O=C(Cn1nnc2ccccc2c1=O)N[C@H](C(=O)O)c1ccccc1 | 12
O=S(=O)(Nc1cccc2ccccc12)c1cccc2nonc12 | 0
COc1cc(C(O)P(=O)(OCCC(C)C)c2ccc(N(C)C)cc2)cc(OC)c1OC (centres undefined) | 12
O=C(Nc1ccccn1)c1ccc(COc2ccccc2Cl)o1 | 19
CCOCCCNC(=O)C(c1ccc(Cl)cc1)N(Cc1cccs1)C(=O)c1ccccn1 (centres undefined) | -6

Later entries.
Molecule | Calb biofilm kill
CCCCC(NS(=O)(=O)c1ccc(C)cc1)C(=O)Oc1ccc2c3c(c(=O)oc2c1)CCC3 (centres undefined) | 14
COc1ccc(/C=N/N2C(=O)CN(C(=O)c3ccccc3)C2c2ccc(OC)cc2)cc1 (centres undefined) | 9
CNCc1ccccc1Sc1cccc(O)c1 | 10
Cc1cc(-c2cc(-c3ccc(Cl)cc3)on2)nc(NC2CCCC2)n1 | 1
COC(=O)CN(c1ccccc1[N+](=O)[O-])S(=O)(=O)c1ccccc1 | 19
O=C(CP(=O)(c1ccccc1)c1ccccc1)N1CCOCC1 | 0
O=C(COc1ccc(Cl)cc1)NCc1ccncc1 | 18
Cc1cc2cc(CCNC(=O)C(=O)c3c[nH]c4ccccc34)c(=O)[nH]c2cc1C | -8

The list goes on:
Molecule | Calb biofilm kill
O=C(Oc1c(CN2CCOCC2)cc(Cl)c2cccnc12)c1ccccc1 | 12
O=C(N/C(=C\c1cn(-c2ccccc2)nc1-c1ccccc1)C(=O)N1CCOCC1)c1ccccc1 | 26
Oc1oc(-c2cccc3ccccc23)nc1/C=N/c1nccs1 | 6
O=C(/C=C/c1ccc2c(c1)OCO2)c1ccc(F)cc1 | 4
C=CCNC(=O)c1ccc(Cn2cc(C(F)(F)F)ccc2=O)cc1 | -2
Cc1ccc(-n2[nH]c(C)c(C=Nc3ccc(Br)cn3)c2=O)cc1 | 22
CC(C)c1ccc(OCC(=O)NNC(=O)c2cnccn2)cc1 | 26
CCCCCCC(=O)Nc1nnc(CC)s1 | 11

An excerpt from further up, for reference:
Molecule | Calb biofilm kill
C=CCNC(=O)c1ccc(Cn2cc(C(F)(F)F)ccc2=O)cc1 | -2
Cc1ccc(-n2[nH]c(C)c(C=Nc3ccc(Br)cn3)c2=O)cc1 | 22
CC(C)c1ccc(OCC(=O)NNC(=O)c2cnccn2)cc1 | 26
CCCCCCC(=O)Nc1nnc(CC)s1 | 11

Other results.
Molecule | Calb biofilm kill
N#Cc1ccc(OCC(O)CS(=O)(=O)c2ccc(F)cc2)cc1 (centres undefined) | 12
C=C(C)C1CC=C(C)/C(=N/NC(=O)CNc2ccc(C)cc2C)C1 (centres undefined) | 7
CC(=O)Nc1ccc(Nc2nc(C)c([N+](=O)[O-])c(Nc3ccccc3)n2)cc1 | 12
COc1cccc(C(=O)Nn2cnnc2)c1 | 6
O=C(COc1cccnc1[N+](=O)[O-])Nc1ccc2c(c1)OCO2 | 4
Cc1sc(N)nc1-c1ccccc1 | 22
O=S(=O)(NCc1ccccn1)c1ccc(Cl)c(C(F)(F)F)c1 | 6
COc1ccccc1NC(=O)Cn1nc(Cc2cccnc2)c2ccccc2c1=O | 15

The list goes on:
Molecule | Calb biofilm kill
Cc1noc(C)c1C(=O)Nc1ccc(F)cc1 | 17
CCOC(=O)CN1C(=O)CCSc2ccc(Cl)cc21 | -9
COC(=O)c1c(C)oc(C)c1S(=O)(=O)NCc1ccc(Cl)cc1Cl | 16
COc1ccc(CC(=O)N/N=C/c2ccc(-c3ccc(F)cc3)o2)cc1OC | 19
CS(=O)(=O)N(Cc1ccc(Cl)cc1)c1ccc(C(=O)NCC2CCCO2)cc1 (centres undefined) | 12
COc1ccc2c(c1)C1=NN(/C(C)=C/C(C)=O)C(c3ccc(F)cc3)C1CC2 (centres undefined) | 11
NC(=O)C1CCN(C(=O)c2ccco2)CC1 | 5
Cc1ccc(C(=O)c2no[n+]([O-])c2C(=O)c2ccc(C)cc2)cc1 | -4

The results go on.
Molecule | Calb biofilm kill
Cc1c(C(=O)Nc2ccc(S(=O)(=O)NCC3CCCO3)cc2)cccc1[N+](=O)[O-] (centres undefined) | 8
CC(C)c1onc(C(=O)N2CCN(Cc3ccccc3)CC2)c1[N+](=O)[O-] | 7
N#C/C(=C\c1ccccc1[N+](=O)[O-])C(=O)NC1CCCCC1 | 6
COc1ccc(NCc2nnc(SCC(=O)NCc3ccccc3)n2-c2ccccc2OC)cc1 | 12
Cc1cc(N2CCC(C)CC2)nc(-c2ccccc2O)n1 | 13
O=C(Nc1cccc2c1[nH]c1ccccc12)C(F)(F)F | -4
O=C(NCCc1ccccc1)C1CCC(CNS(=O)(=O)c2cccc3cccnc23)CC1 (centres undefined) | 31
O=C(Nc1cccc(C(=O)O)c1)/C(=C\c1ccc2c(c1)OCO2)NC(=O)c1ccc(Br)cc1 | 19

Next results follow.
Molecule | Calb biofilm kill
Cc1ccc(SCC(=O)NC(=O)NC(C)C)c(C)c1 | 12
CCCNS(=O)(=O)c1ccc(OCC(=O)NCCCOC)cc1 | 9
CCOC(=O)C1CCCN(Cc2c(C(=O)N3CCCCC3)nc3c(C)cccn23)C1 (centres undefined) | 12
Cc1cccc(NC(=O)C2SC(=Nc3c(C)cccc3C)C(C(=O)N3CCOCC3)=C2N)c1 (centres undefined) | 23
Cc1ccc2nc(SC(C)C(=O)NCc3ccc4c(c3)OCO4)[nH]c2c1 (centres undefined) | 22

Screening results deposited in PubChem BioAssay by PCMD.
